RE007 growth inh: less growth of the S. pombe RE007 Vpr strain; AID 651644; Potency, µM (doses to about 92.2 µM), inactives show top-dose activity change, negative = less growth; 0.21% of 360,000 active; S. pombe RE007 Vpr strain, BacTiter-Glo ATP luminescence, 24 h; control for the full effect not named in the record; active = well fitted falling curve with a large enough effect; inconclusive = small, poorly fitted or top-dose-only effect; inactive = no such curve, though single readings can be large or run the other way;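 further: on the % scale 0 is the no-effect control and ±100 the full control effect; nearly all actives have a fitted effect of over 50% in size; the assay follows cell death caused by Vpr and the record does not say whether a fall means rescue or toxicity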
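Fission yeast RE007 carrying one integrated HIV-1 vpr copy, seeded at OD 0.01 in PMG+AL medium with 23 nL pinned compound. Grown 24 h at 30 degrees; viability read by BacTiter-Glo luminescence after 5 min.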
LASV entry inh: blocks Lassa virus binding to or entry into cells; 1.2% of 300,000 active; Lassa virus pseudotype entry inhibition, cell reporter; control for the full effect not named in the record; Potency, µM (doses to about 37.9 µM), for inactives: at the top dose activity change, negative = inhibition, actives largely listed as inhibitors; active means well fitted inhibition curve with a large enough effect; inconclusive means small, poorly fitted or top-dose-only effect, or effect the other way; inactive means flat fitted curve, though single readings scatter; tested in HEK293 cells; further: on the % scale 0 is the no-effect control and ±100 the full control effect; nearly all actives have a fitted effect of over 50% in size; luciferase read-out
MARV entry inh: blocks Marburg virus binding to or entry into cells. Marburg virus pseudotyped entry inhibition, cell reporter; control for the full effect not named in the record; about a third of the inactives were read at about 46 µM. Potency, µM (series often up to 37.8 µM), inactives show at the top dose activity change, negative = inhibition, usual class: inhibitors. 1.8% of 300,000 active; active = well fitted inhibition curve with a large enough effect; inconclusive = small, poorly fitted or top-dose-only effect, or effect the other way; inactive = flat fitted curve, though single readings scatter; tested in HEK293 cells; about a fifth of its hits are not listed in these tables; further: on the % scale 0 is the no-effect control and ±100 the full control effect; luciferase read-out
SARS PLP yeast: inhibitors of SARS-CoV papain-like protease in yeast | S. cerevisiae expressing SARS-CoV PLpro, growth rescue; control for the full effect not named in the record | Potency, µM (top dose mostly 32.9 µM), for inactives: at the top dose activity, positive = growth rescue | 0.19% of 330,000 active; active means well fitted rising curve with a large enough effect; inconclusive means small, poorly fitted or top-dose-only effect; inactive means no such curve, though single readings can be large or run the other way; further: 0% is about no effect; nearly all actives have a fitted effect of over 55% in size; growth read by luminescence after 48 h
NS1 function inh: blocks influenza NS1 protein function | S. cerevisiae slowed by influenza A NS1, growth recovery by OD600 | Potency, µM (highest dose often 46.1 µM), without a hit: at the top dose activity, positive = more growth | 0.4% of 270,000 active; active means well fitted rising curve with a large enough effect; inconclusive means small, poorly fitted or top-dose-only effect; inactive means no such curve, though single readings can be large or run the other way; further: nearly all actives have a fitted effect of over 50% in size
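Compounds were scored for reversing the slow growth caused by influenza A NS1 in S. cerevisiae, measured by optical density at 600 nm. Assay medium contained 2% galactose at pH 6.0; NS1-free yeast of the same strain were the positive control.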
Cruzain noTriton: inhibitors of Trypanosoma cruzi cruzain without detergent. AID 1476. 2.3% of 200,000 active. P25779. Potency, µM, inactives show max response, negative = inhibition, actives largely listed as inhibitors. purified cruzain, Z-FR-AMC fluorescence, no detergent;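 further: plate controls were enzyme without inhibitor for no effect and buffer without enzyme for full effect; nearly all actives have a fitted effect of over 40% in size; top concentration of the series not given in the record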
Target sequence (P25779 123-467 limits assumed): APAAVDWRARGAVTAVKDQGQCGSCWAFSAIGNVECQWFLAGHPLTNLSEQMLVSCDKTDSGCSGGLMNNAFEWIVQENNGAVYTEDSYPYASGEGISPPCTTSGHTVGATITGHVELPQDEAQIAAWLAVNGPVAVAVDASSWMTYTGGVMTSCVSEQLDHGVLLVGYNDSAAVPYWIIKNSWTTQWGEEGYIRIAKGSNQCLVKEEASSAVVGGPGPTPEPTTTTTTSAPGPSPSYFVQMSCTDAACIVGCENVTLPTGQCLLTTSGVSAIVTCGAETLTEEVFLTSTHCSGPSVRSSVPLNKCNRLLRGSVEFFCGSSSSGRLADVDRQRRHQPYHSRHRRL
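Purified cruzain at 1.5 nM, pre-incubated 15 min with compound at room temperature in 100 mM sodium acetate pH 5.5, 5 mM DTT, 0.00005% Triton X-100. Reaction started with 2 uM Z-FR-AMC; AMC fluorescence increase over 60 s gives rate.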
2A StopGo: lowers the luciferase signal of an FMDV 2A StopGo reporter; human cells with a luciferase reporter of 2A StopGo recoding; control for the full effect not named in the record; 1.2% of 410,000 active; Potency, µM (doses to about 57.9 µM), without a hit: at the top dose signal change, negative = less light; AID 1159524; active = well fitted falling curve with a large enough effect; inconclusive = small, poorly fitted or top-dose-only effect; inactive = no such curve, though single readings can be large or run the other way; tested in HEK293T cells; further: on the % scale 0 is the no-effect control and ±100 the full control effect; nearly all actives have a fitted effect of over 45% in size; luciferase light after 4 h
Cruzain Triton: blocks cruzain activity in presence of Triton detergent. P25779. purified cruzain, Z-FR-AMC fluorescence, 0.01% Triton. Potency, µM, for the others: max response, negative = inhibition, actives largely listed as inhibitors. 0.43% of 200,000 active;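 further: plate controls were neutral wells for no effect and buffer without enzyme for full effect; nearly all actives have a fitted effect of over 40% in size; top concentration of the series not given in the record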
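Enzyme 1.5 nM, Z-FR-AMC 2 uM, NaOAc 100 mM pH 5.5, DTT 5 mM, Triton X-100 0.01%; 15 min RT compound preincubation; kinetic ex360/em450, 60 s delta.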
Numbers without * were called inactive; u = inconclusive; x = no result given; & = joins results of further samples; [ ] = remark or other dose. Unless noted, the call rests on the fitted dose curve; in most records, active means well fitted curve in the direction sought with a large enough effect; inconclusive means small, poorly fitted or top-dose-only effect, or another doubt; inactive means no such curve, though single readings can be large; an effect the other way counts as inactive or inconclusive. Potency means the concentration at half of the fitted maximal effect.

Values in the order: RE007 growth inh	LASV entry inh	MARV entry inh	SARS PLP yeast	NS1 function inh	Cruzain noTriton	2A StopGo	Cruzain Triton
> CCN(CC)C(=O)c1csc(Nc2ccc(C)cc2)n1
 : -10%	13%	-21%	-30%	-149%	-5%	11%	-6.9%
> Cc1ccc(NC(=O)CCc2c(C)nc3ncnn3c2C)nc1
 : 6%	-4%	-18%	5%	8%	-7%	-2%	-1.1%
> O=C(CNC(=S)N(Cc1ccccc1Cl)C1CCCC1)NCCCN1CCOCC1
 : -11%	14%	23%[46.1 µM]	1%	x	x	0%	x
> Cc1nc2ccc(C(=O)N3CCCC(CO)(Cc4ccc(F)cc4F)C3)cc2nc1C (configuration not stated)
 : 6%	x	x	-1%	1%	x	-14%	x
> CCN(CC)S(=O)(=O)c1ccc(OC)c(NC(=O)Cc2cccs2)c1
 : -4%	u	u	0%	-1%	x	59%[activator]	x
> O=C(c1ccc(Cl)c([N+](=O)[O-])c1)N(Cc1ccc(Cl)cc1)C1CCS(=O)(=O)C1 (configuration not stated)
 : 2%	-12%	u	7%	2%	19%	12%	-3.3%
> COc1ccccc1C(=O)NNC(=S)NC(=O)c1sc2ccccc2c1Cl
 : 1%	-3%	-12%	11%	u	10µM*	-24%	8.0%
> CC(OC(=O)Nc1cccc(Cl)c1)C(=O)OC1CCCCC1 (configuration not stated)
 : -23%	-17%	u	x	x	x	4%	x
> Cc1cc(N2CCOCC2)nc2ccc(NC(=O)CCC(=O)N3CCN(c4ccccc4F)CC3)cc12
 : u	u	u	0%	-33%	x	-7%	x
> O=C(Nc1ccccc1N1CCN(C(=O)c2ccccc2)CC1)c1cc2ccccc2o1
 : -5%	11%	u	-4%	-49%	0.16µM*	u	-8.1%

Looked up by structure from the entries so far, four records:
Values in the order: RE007 growth inh	LASV entry inh	MARV entry inh	SARS PLP yeast	NS1 function inh	Cruzain noTriton	2A StopGo	Cruzain Triton
> CCN(CC)C(=O)c1csc(Nc2ccc(C)cc2)n1
 : -10%	13%	-21%	-30%	-149%	-5%	11%	-6.9%
> O=C(c1ccc(Cl)c([N+](=O)[O-])c1)N(Cc1ccc(Cl)cc1)C1CCS(=O)(=O)C1 (configuration not stated)
 : 2%	-12%	u	7%	2%	19%	12%	-3.3%
> CC(OC(=O)Nc1cccc(Cl)c1)C(=O)OC1CCCCC1 (configuration not stated)
 : -23%	-17%	u	x	x	x	4%	x
> Cc1cc(N2CCOCC2)nc2ccc(NC(=O)CCC(=O)N3CCN(c4ccccc4F)CC3)cc12
 : u	u	u	0%	-33%	x	-7%	x

Next structures
Values in the order: RE007 growth inh	LASV entry inh	MARV entry inh	SARS PLP yeast	NS1 function inh	Cruzain noTriton	2A StopGo	Cruzain Triton
> Cc1ccc(S(=O)(=O)N2CCOCC2)cc1NC(=O)CN1C(=O)CN(C)C1=O
 : 1%	2%	30%	-5%	x	x	-12%	x
> O=C(NCc1ccccc1)c1ccc(=O)oc1
 : 1%	-20%[46.1 µM]	u	0%	4%	x	13%	x
> O=C(Cn1c(=O)oc2cc(S(=O)(=O)N3CCOCC3)ccc21)N1CCc2ccccc2C1
 : -4%	x	2%	4%	-5%	-2%	-5%	-1.8%
> O=C1C2C3C=CC(C2C(=O)N1CCCO)C1C2C(=O)N(CCCO)C(=O)C2C31 (configuration not stated)
 : -3%	0%	-10%	10%	9%	-4%	-21%	2.8%
> COc1cccc(/C=N/NC(=O)CN2CC(c3ccccc3)CC2=O)c1O (configuration not stated)
 : 6%	u	u	15%	-4%	0%	24%	-3.9%
> C=CCN(C(=O)CSc1nc2ccsc2c(=O)n1Cc1ccccn1)c1ccccc1
 : 20%	u	-27%[46.1 µM]	0%	x	x	0%	x
> COc1ccccc1N1CCN(C2CCCN(C(=O)CCN3CCCCO3)C2)CC1 (configuration not stated)
 : -7%	x	x	-2%	4%	x	-13%	x
> Cn1c(=O)n(C)c2cc([N+](=O)[O-])c(N3CCN(C(=O)C(C)(C)C)CC3)cc21
 : 6%	u	u	1%	-1%	x	u	x
> CC1CCCCN1S(=O)(=O)c1cccc2nonc12 (configuration not stated)
 : -9%	17%[46.1 µM]	u	-3%	6%	x	14%	x
> N#Cc1c2ccc(O)cc2n2ccccc12
 : 4%	u	u	-4%	x	x	20%	x
> Cc1cccc2c1-c1sc(C(=O)NCc3ccc(Cl)cc3)cc1CO2
 : x	x	7%[46.1 µM]	x	x	3%	-7%	-6.2%
> CCn1c(Cc2ccccc2)nnc1SCC(=O)Nc1ccccc1N1CCOCC1
 : 17%	0%	9%	2%	-3%	20%	0%	0.3%
> COc1ccc2[nH]cc(C(=O)CN3CC(C)CC(C)C3)c2c1 (configuration not stated)
 : -1%	9%	u	-4%	-2%	x	6%	x
> CC(=O)c1cccc(NS(=O)(=O)c2ccc(N/C=C\C(=O)c3ccc(F)cc3)cc2)c1
 : -7%	u	u	u	5%	u	u	-2.7%
> O=C(NCC(=O)N1CCN(S(=O)(=O)c2ccccc2)CC1)c1ccc2ccccc2c1
 : -1%	4%	3%	-3%	x	x	-23%	x
> CCOC(=O)NC1c2ccccc2Oc2ccccc21
 : 8%	18%	-1%[46.1 µM]	0%	-1%	x	-10%	x
> O=C1Nc2ccccc2C12OCCCO2
 : -3%	3%	u	4%	-2%	5%	-20%	4.1%
> C=CCNC(=O)CN1C(=O)c2cccc3cccc1c23
 : -10%	x	x	0%	13%	x	-3%	x
> CCCc1ccc(OCCNC(=O)c2ccccc2Br)cc1
 : 4%	x	x	0%	-48%	x	4%	x
> COc1ccc(N(C(=O)c2snc(C(N)=O)c2N)C(C(=O)NC2CCCC2)c2ccc3ncccc3c2)cc1 (configuration not stated)
 : 6%	u	u	0%	6%	x	-17%	x
> Nc1c(Cl)ncnc1N/N=C/c1ccnc2ccccc12
 : -5%	3%	0%	-8%	29%	-22%	16%	-5.9%
> CCOC(=O)c1c(CN(CC)CC)n(C)c2cc(Br)c(O)cc12
 : 9%	19%	0%	2%	6%	x	-22%	x
> CCOC(=O)c1cnc2ccc(C)cc2c1Sc1ccccc1
 : -15%	15%	28%	-20%	15%	-3%	13%	-2.9%
> COc1ccc(CCNC(=O)c2nnc(Cc3c(F)cccc3Cl)o2)cc1OC
 : -10%	3%	8%	-2%	-9%	3%	-17%	2.4%
> Cc1ccc(OCCCC(=O)NCc2ccco2)cc1
 : -4%	12%	9%	-2%	-7%	-7%	-4%	4.1%
> COc1cccc(NC(=S)/C(=C(\[O-])c2ccc(OC(F)F)cc2)[n+]2ccccc2)c1
 : 7%	-9%	-12%	1%	x	x	2%	x
> CC(C)N(C(C)C)S(=O)(=O)c1ccc(NC(=O)c2cnccn2)cc1
 : -15%	x	x	1%	-1%	x	13%	x
> O=C(Nc1cccc(Cl)c1N1CCOCC1)c1ccc2c(c1)OCCO2
 : -2%	u	u	0%	-34%	x	7%	x
> Cc1c(NS(=O)(=O)c2cccc(C(=O)OCC(=O)N(C)C3CCCCC3)c2)c(=O)n(-c2ccccc2)n1C
 : 8%	-11%[46.1 µM]	u	0%	x	x	-9%	x
> Cc1cc(C)cc(C(=O)NC(CC(N)=O)c2ccc(N3CCC(N4CCCCC4)CC3)c([N+](=O)[O-])c2)c1 (configuration not stated)
 : -20%	x	x	-7%	-3%	x	-8%	x
> Cc1ccc(CNC(=O)C2CCN(S(=O)(=O)N3CCCCC3)CC2)cc1
 : 19%	28%&1%[46.1 µM]	-6%&-6%[46.1 µM]	1%	x	-3%	-19%&-13%	-0.4%
> O=C(CN(c1ccc(Cl)c(C(F)(F)F)c1)S(=O)(=O)c1ccccc1)N1CCc2ccccc2C1
 : x	-14%[46.1 µM]	x	x	x	-17%	-6%	-6.2%
> CC(C)COC(=O)Cn1nnc2sc(-c3ccccc3)cc2c1=O
 : x	30%[46.1 µM]	-1%[46.1 µM]	x	x	-16%	-12%	-3.3%
> CCc1ccc(NC(=O)Cn2cc(S(=O)(=O)c3ccc(F)cc3)c(=O)c3cc(OC)ccc32)cc1
 : x	-5%[46.1 µM]	-29%[46.1 µM]	x	x	-3%	-10%	-1.3%
> Cn1c(CNC(=O)OC(C)(C)C)nnc1SCc1c(Cl)cccc1Cl
 : -5%	-9%	6%	0%	7%	x	-18%	x
> Cc1ccc2c(c1)cc(CN(CCc1ccccc1)C(=O)N1CCOCC1)c1nnnn12
 : -6%	u	3%	0%	-5%	u	3%	-2.1%
> Cc1nn(CC(=O)N/N=C/c2ccc(F)cc2)c(C)c1[N+](=O)[O-]
 : 9%	-2%	-8%[46.1 µM]	0%	1%	x	-11%	x
> Cc1ccc(C)c(N2CCN(C(=O)c3ccc(CS(=O)(=O)c4ccccc4C)o3)CC2)c1
 : -12%	u	u	-4%	8%	u	u	-3.2%
> Cc1ccc2nc(Nc3cccc(Cl)c3C)c(-n3nc(C)cc3C)nc2c1
 : x	29%[46.1 µM]	8%[46.1 µM]	x	x	-2%	-10%	4.9%
> Cc1ccc2nc(SCc3nnc(-c4ccccc4[N+](=O)[O-])o3)c(C#N)cc2c1
 : 1%	u	1%	6%	8%	u	26%	-8.7%
> CC(NC(=S)Nc1ccc(OC(F)F)c(Cl)c1)C(C)(C)C (configuration not stated)
 : -2%	u	u	-5%	x	x	-3%	x
> COC(=O)Nc1ccc2ccc3c(NC(=O)OC)ccc4ccc1c2c43
 : 4%	-2%	2%	x	x	x	-16%	x
> CSc1ccc(C2NC(=O)CCC2[N+](=O)[O-])cc1 (configuration not stated)
 : 9%	x	x	-2%	1%	x	-18%	x
> CCCn1c(SCC(=O)c2ccc3c(c2)OCCO3)n[nH]c1=O
 : 5%	1%	1%[46.1 µM]	0%	x	x	41%[activator]	x

Screens as filed in PubChem BioAssay.
